Assay outcomes deposited in PubChem BioAssay by Johns Hopkins Ion Channel Center.
KCNQ2 block: KCNQ2 potassium channel inhibitors, primary screen, cell-based, CHO-K1, FluxOR thallium flux, B-score (AID 2156). 20 min; hits give low values; only compounds with negative scores are shown here; some inactives read as strong as hits. B-score at 10 µM. 310,000 tested, 1.1% active;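 active means fluorescence ratio B-score at most minus 3 library SDs, with starting brightness B-score within 2 library SDs, cut at about -5.5 in these data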
Target sequence (O88943 whole entry, looked up): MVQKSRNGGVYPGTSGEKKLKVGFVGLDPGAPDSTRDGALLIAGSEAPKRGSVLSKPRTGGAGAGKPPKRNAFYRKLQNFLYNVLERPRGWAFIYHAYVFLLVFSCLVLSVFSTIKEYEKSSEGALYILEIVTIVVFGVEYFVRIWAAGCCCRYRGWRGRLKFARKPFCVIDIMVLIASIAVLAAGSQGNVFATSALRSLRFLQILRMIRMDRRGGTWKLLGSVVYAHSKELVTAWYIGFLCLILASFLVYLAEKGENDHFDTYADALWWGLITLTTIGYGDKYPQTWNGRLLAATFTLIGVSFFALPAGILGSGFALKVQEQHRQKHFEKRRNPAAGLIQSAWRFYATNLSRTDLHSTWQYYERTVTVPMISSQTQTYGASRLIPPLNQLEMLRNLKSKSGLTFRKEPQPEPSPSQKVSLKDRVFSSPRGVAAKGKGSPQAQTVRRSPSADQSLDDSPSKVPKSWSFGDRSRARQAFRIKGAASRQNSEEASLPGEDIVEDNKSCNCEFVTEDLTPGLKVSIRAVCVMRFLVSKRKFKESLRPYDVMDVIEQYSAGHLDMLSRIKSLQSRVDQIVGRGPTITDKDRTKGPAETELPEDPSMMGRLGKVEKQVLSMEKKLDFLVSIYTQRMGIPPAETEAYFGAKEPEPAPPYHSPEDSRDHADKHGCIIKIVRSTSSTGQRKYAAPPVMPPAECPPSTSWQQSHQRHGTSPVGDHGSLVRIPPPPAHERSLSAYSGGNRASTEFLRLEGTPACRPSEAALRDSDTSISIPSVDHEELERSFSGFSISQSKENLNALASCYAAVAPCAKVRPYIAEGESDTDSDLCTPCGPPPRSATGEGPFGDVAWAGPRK
KCNQ2 block baseline: recorded beside KCNQ2 block, whose call it bears; B-score; measured here: initial fluorescence intensity artifact check;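 brightness before thallium and not channel activity; 0 = typical well and far values either way flag optical interference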
Starred values were filed as active, the others as inactive; i = inactive.

KCNQ2 block	KCNQ2 block baseline	Molecule
i	-0.59	Cc1cccc(C(=O)N2CCC(n3nnc4cc(F)ccc43)CC2)c1
i	-1.8	O=C(NCc1cccs1)c1cc(-c2ccccc2)nn1CC1CC(c2cccc([N+](=O)[O-])c2)=NO1 (stereo not drawn)
i	1.2	Cc1nc2ccccc2n1/C(=N\S(=O)(=O)c1ccccc1)c1ccccc1
i	-0.68	COc1ccc(C(=O)C(CCC(CNC(C)(C)C)C(=O)c2ccc(OC)cc2)CNC(C)(C)C)cc1 (stereo not drawn)
i	3	Cc1ccc(NC(=O)COC(=O)c2cccnc2Cl)cc1S(=O)(=O)N1CCCCC1
i	-2.2	Cc1ccc(C(=O)c2c(C)oc3c2C(=O)C(=O)c2ccccc2-3)cc1
i	1.5	CC1=CC=CC2=NC(=O)CC(C)(C(=O)N(CC(=O)NC3CCCC3)Cc3ccc(Cl)cc3)N12 (stereo not drawn)
i	0.7	COc1ccc(NS(=O)(=O)c2cccc(C(=O)NCC3(N4CCOCC4)CCCCC3)c2)cc1
i	4.5	O=C(O)CC(=O)NC12CC3CC(CC(C3)C1)C2
i	-2	Cc1c(Cl)cccc1NC(=O)C1CCN(S(C)(=O)=O)CC1
i	1.1	CCn1c2ccccc2c2cc(NC(=O)c3cccc([N+](=O)[O-])c3C)ccc21
i	0.89	C1CCC(Nc2nc3nonc3nc2N2CCSCC2)C1
i	2.3	Cc1ccc(C)c(NC(=S)N(C)CCO)c1
i	-2.1	COCCNc1cc(N)c([N+](=O)[O-])cc1[N+](=O)[O-]
i	-1.5	CCC(CC)C(=O)Nc1ccccc1-n1cccc1
i	-1.9	S=c1[nH]nc(COc2ccccc2)n1/N=C/C=C/c1ccccc1
i	-1.9	CCOc1ccccc1NCc1cc(=O)oc2cc(C)ccc12
i	0.88	Cc1sc(-c2ccncc2)nc1OC(=O)c1ccc(F)cc1F
i	0.28	COC(=O)C(CCSC)NC(=O)c1cn(-c2ccc(OC)cc2)c(=O)c2ccccc12 (stereo not drawn)
i	2.8	CCOC(=O)N1CCC(NC(=O)CSCc2nc(-c3ccccc3Cl)oc2C)CC1
i	-1.2	O=C(Nc1ccc(N2CCOCC2)cc1N1CCOCC1)c1ccc([N+](=O)[O-])cc1
i	1.2	COc1ccccc1OC(C)C(=O)Nc1ccc2c(c1)n(C)c(=O)n2C (stereo not drawn)
i	0.85	O=C(CN1CCCC1)Nc1ccccc1Sc1ccccc1
i	1.9	Cc1cc(NC(=O)COc2coc(CN3CCN(c4ccccc4)CC3)cc2=O)no1
i	-3.3	CCCC(c1nnnn1Cc1ccco1)N1CCN(c2ccccc2)CC1 (stereo not drawn)
i	-1	O=C(Cc1cccs1)N1CCN=C1SCc1ccc(Br)cc1
i	1.1	Cc1nn(-c2ccccc2)cc1C(c1c(N)[nH]c(=S)[nH]c1=O)c1c(N)[nH]c(=S)[nH]c1=O
i	2.8	Cc1c(C(=O)OCC(=O)N(CCC#N)c2ccccc2)oc2c1ccc1ccccc12
i	-1.1	CCC(C(=O)NCCc1ccccc1OC)n1nc(C)c2c(C)n(-c3ccccc3)nc2c1=O (stereo not drawn)
i	0.71	CCCCn1c(-c2ccncc2)nc2c1c(=O)[nH]c(=O)n2CC(C)C
i	0.08	Cc1ccc(CNC(=O)C(C)OC(=O)c2ccco2)cc1 (stereo not drawn)
i	-0.72	COc1ccc(C2=NO[C@@H]3[C@@H]4C[C@@H]([C@H]5C(=O)N(C)C(=O)[C@@H]45)[C@H]23)cc1
i	-0.04	CCN(C(=O)COC(=O)c1ccccc1NCCO)C1CCS(=O)(=O)C1 (stereo not drawn)
i	0.71	Cc1csc(/C(C#N)=N/O)n1
i	-1	Cc1cc(S(=O)(=O)Nc2ccc(C(=O)NCCCN3CCCC3=O)cc2)ccc1F
i	0.43	COC(=O)CCC(=O)OC1(C)C(=O)C=C2C=C(C3CC3)OC=C2C1=O (stereo not drawn)
i	0.08	CCN(CC)CCCN(Cc1cc2ccc(C)c(C)c2[nH]c1=O)C(=O)NC1CCCCC1
i	0.72	COc1ccccc1/C(O)=C(\C#N)c1nc2ccccc2[nH]1
i	-0.07	CC1Cc2ccccc2N1C(=O)CSc1ccccc1 (stereo not drawn)
i	0.06	COC(=O)[C@@H]1C[C@H]1[C@@H](NC(=O)c1cc(C)on1)c1ccccc1
i	-0.26	O=C(N/N=C/C=C\c1ccco1)c1cccnc1
i	1.7	Cc1occc1C(=O)NNC(=O)c1nn(C)c(=O)c2ccccc12
i	-1.1	CCOC(=O)CC1C(=O)NCCN1C(=O)c1ccc(Cl)cc1Cl (stereo not drawn)
i	0.03	COc1ccc(C2C(C#N)=C(N)Oc3n[nH]c(-c4ccccn4)c32)c(OC)c1OC (stereo not drawn)
i	-0.14	CCc1ccc(NC(=O)CSc2ccc(-c3cccnc3)nn2)cc1
i	1.3	CSc1ccc(-c2ccco2)nn1
i	-1.5	Fc1ccc(-c2nnc(N3CCOCC3)c3ccccc23)cc1F
i	1.9	CCOc1ccc(C(=O)c2ccncc2)cc1
i	-1.1	CCOC(=O)/C(=C/c1c2ccccc2cc2ccccc12)NC(=O)c1ccccc1
i	1.1	COC(=O)[C@H](Cc1ccccc1)NC(=O)O[C@H]1C(=O)c2ccc(OC)cc2O[C@@H]1c1ccc2c(c1)OCO2
i	1.4	CC(OC(=O)/C(C#N)=C/c1ccc(N(C)C)cc1)C(=O)N(C)c1ccccc1 (stereo not drawn)
i	-0.03	COc1cccc(C(=O)N2CCN(C3CCN(Cc4ccccc4)CC3)CC2)c1OC
i	-2	CCc1ccccc1NC(=O)C1CCCN(S(=O)(=O)c2ccc3c(c2)CC(C)N3C(C)=O)C1 (stereo not drawn)
i	0.45	CC(=O)N(CCc1ccccc1)Cc1cc2cc(C)ccc2[nH]c1=O
i	-0.02	CCOC(=O)c1c(C)oc2ccc(OS(C)(=O)=O)cc12
i	0.14	Cc1[nH]c(=O)[nH]c(=O)c1S(=O)(=O)N1CCCC(C(=O)N2CCN(c3cccc(C(F)(F)F)c3)CC2)C1 (stereo not drawn)

Remaining list, next part
KCNQ2 block	KCNQ2 block baseline	Molecule
i	-1.3	O=C1CN(C(=O)CC2C(=O)NCCN2Cc2ccccc2C(F)(F)F)CCN1 (stereo not drawn)
i	-0.77	CCOc1cc(/C=C(\C#N)C(=O)Nc2cccc(C(=O)O)c2)ccc1OCc1ccc(Br)cc1
i	1.5	O=[N+]([O-])c1cccc(CSc2cccc[n+]2[O-])c1
i	-1.9	COc1ccc(Cl)cc1NS(=O)(=O)c1cc(Br)cnc1N
i	-0.27	Cc1ccccc1-c1nc(CS(=O)(=O)CC(=O)N2CCN(C)CC2)c(C)o1
i	-0.73	COc1ccc(C2(C(=O)Nc3ccc(C(=O)O)cc3)CCOCC2)cc1
i	0.01	O=C(CSc1nc(C2CCCCC2)nc2ccccc12)NCc1ccc2c(c1)OCO2
i	-0.7	Cc1cc(S(=O)(=O)N2CCN(Cc3ccccc3)CC2)c(C)s1

A second format for some results above.
Every second line gives: KCNQ2 block, KCNQ2 block baseline
COC(=O)[C@H](Cc1ccccc1)NC(=O)O[C@H]1C(=O)c2ccc(OC)cc2O[C@@H]1c1ccc2c(c1)OCO2
→ i, 1.1
CC(OC(=O)/C(C#N)=C/c1ccc(N(C)C)cc1)C(=O)N(C)c1ccccc1 (stereo not drawn)
→ i, 1.4
COc1cccc(C(=O)N2CCN(C3CCN(Cc4ccccc4)CC3)CC2)c1OC
→ i, -0.03
CCc1ccccc1NC(=O)C1CCCN(S(=O)(=O)c2ccc3c(c2)CC(C)N3C(C)=O)C1 (stereo not drawn)
→ i, -2
CC(=O)N(CCc1ccccc1)Cc1cc2cc(C)ccc2[nH]c1=O
→ i, 0.45
CCOC(=O)c1c(C)oc2ccc(OS(C)(=O)=O)cc12
→ i, -0.02
Cc1[nH]c(=O)[nH]c(=O)c1S(=O)(=O)N1CCCC(C(=O)N2CCN(c3cccc(C(F)(F)F)c3)CC2)C1 (stereo not drawn)
→ i, 0.14
O=C1CN(C(=O)CC2C(=O)NCCN2Cc2ccccc2C(F)(F)F)CCN1 (stereo not drawn)
→ i, -1.3
CCOc1cc(/C=C(\C#N)C(=O)Nc2cccc(C(=O)O)c2)ccc1OCc1ccc(Br)cc1
→ i, -0.77
O=[N+]([O-])c1cccc(CSc2cccc[n+]2[O-])c1
→ i, 1.5
COc1ccc(Cl)cc1NS(=O)(=O)c1cc(Br)cnc1N
→ i, -1.9
Cc1ccccc1-c1nc(CS(=O)(=O)CC(=O)N2CCN(C)CC2)c(C)o1
→ i, -0.27
COc1ccc(C2(C(=O)Nc3ccc(C(=O)O)cc3)CCOCC2)cc1
→ i, -0.73
O=C(CSc1nc(C2CCCCC2)nc2ccccc12)NCc1ccc2c(c1)OCO2
→ i, 0.01

(continued)
KCNQ2 block	KCNQ2 block baseline	Molecule
i	0.09	CN1CCN(C(=O)CCN2C(=O)/C(=C/c3cccc(Br)c3)SC2=S)CC1
i	-0.48	NS(=O)(=O)c1ccc(NC(=O)Nc2cccc(Cl)c2)cc1
i	0.89	COc1ccc(C=O)cc1CN1C(=O)c2ccccc2C1=O
i	1.2	CC(=O)Nc1cc(N=Cc2ccc(O)cc2O)c(Cl)cc1Cl
i	0.31	CCOC(=O)C1(CC2CCCCO2)CCN(C(=O)Nc2ccc(SC)cc2)CC1 (stereo not drawn)
i	1.4	NS(=O)(=O)c1ccc(CNC(=O)CSc2ccccc2)cc1
i	-1.3	CCN(CCCNC(=O)c1cc2c(-c3cccc(OC)c3)nn(C)c2s1)Cc1ccccc1
i	-0.2	CSCc1cc(N(C)C)nc(SCc2ccc(Cl)c(Cl)c2)n1
i	1.2	Cn1c(SCc2ccccc2[N+](=O)[O-])nnc1-c1cccnc1
i	2.8	O=C(NCCCn1ccnc1)/C(=C\c1cccs1)NC(=O)c1ccco1
i	-1.4	CN(C)/C=C(\C(=O)c1ccc(Cl)cc1)c1nnnn1-c1ccc(Cl)cc1
i	0.27	Cc1ncc(C(=O)O)c(C(=O)O)c1N
i	0.66	COc1ccccc1OCC#CCSc1ncccn1
i	2.7	Cc1cc(C)c(NC(=O)CNC(=O)Cc2sc(C)nc2-c2ccc(F)cc2)c(C)c1
i	-1.9	O=C(Nc1ncc2c(n1)-c1ccccc1CC2)c1cccc(Cl)c1
i	-1.1	C=CCSc1nnc(-c2cnn(-c3ccccc3)c2-n2cccc2)n1C

Two entries drawn at random from the list so far, as already listed:
KCNQ2 block	KCNQ2 block baseline	Molecule
i	0.27	Cc1ncc(C(=O)O)c(C(=O)O)c1N
i	2.8	O=C(NCCCn1ccnc1)/C(=C\c1cccs1)NC(=O)c1ccco1

The list goes on:
KCNQ2 block	KCNQ2 block baseline	Molecule
i	2	CC1CCCC(C)N1C(=O)COC(=O)Cn1cnc2c1c(=O)n(C)c(=O)n2C (stereo not drawn)
i	1.1	CCN1CCCC1CNC(=O)c1ccc(Sc2ccc(F)cc2)c([N+](=O)[O-])c1 (stereo not drawn)
i	-0.8	CCc1nccn1C(=O)c1cnn2c(C(F)F)cc(-c3ccc(C)cc3)nc12
i	-0.41	CC1CC(OCC(O)CN2CCN(Cc3ccccc3)CC2)CC(C)(C)C1 (stereo not drawn)
i	0.42	O=c1nc2c(-c3ccccc3F)n[nH]n2c2ccccc12
i	0.35	CCCNC(=O)c1cccc(C(F)(F)F)c1
i	1.1	Cc1ccc(C)c(C(C)NC(=O)C2CCCO2)c1 (stereo not drawn)
i	1.7	CC(C)(C)CN1CCNC[C@H]1Cc1ccc(O)cc1
i	-0.87	CCOC(=O)CCc1c(C)c2ccc(OC(C)C(=O)OCC)c(C)c2oc1=O (stereo not drawn)
i	0.04	Cc1ccc(C(=O)Nc2ncc(C)s2)s1
i	1.6	CCOc1cc(/C=C2\SC(N)=NC2=O)ccc1O
i	-0.21	C/C(=N/OCC(=O)NCCCCCCNC(=O)CO/N=C(/C)c1cccs1)c1cccs1
i	-1.5	O=C(Nc1ccon1)Nc1ccc(Cl)cc1Cl
i	-0.05	CN1CCC(OC(=O)c2cccc(Br)c2)CC1
i	-1.3	O=C(NC1CCCC1)C(=O)N(Cc1cccnc1)C(C(=O)NC1CCCC1)c1ccco1 (stereo not drawn)
i	2.2	O=C(Cn1nnc2ccccc2c1=O)N[C@@H](Cc1ccccc1)C(=O)O
i	0.25	COc1cccc(N/C(SCc2cccc([N+](=O)[O-])c2)=C(/C#N)C(N)=O)c1
i	1.4	O=C(NCCNC(=O)c1cnccn1)c1cccc(Cl)c1
i	0.75	CC(NC(=O)/C(C#N)=C/c1cn(-c2ccccc2)nc1-c1ccc(F)cc1)c1ccccc1 (stereo not drawn)
i	-0.18	CCCC(=O)Nc1c2c(nc3ccccc13)N(c1ccccc1)CC2
i	-1	CC(=O)Nc1nc(-c2ccc3c(c2)OCO3)cs1
i	-0.05	S=C(NCc1ccccn1)Nc1ccc(Br)cc1Cl
-7.4*	-0.04*	COc1ccc(OCc2n(CC(=O)OC3CC(C)CCC3C(C)C)c3ccccc3[n+]2C)cc1 (stereo not drawn)
i	0.39	O=S1(=O)N=C(Oc2ccccc2)c2ccccc21
i	1.6	COc1nccc(C(F)(F)F)c1C(=O)Nc1ccc(Cl)cc1
i	-0.92	COc1cccc(NC(=S)N2CCN(S(C)(=O)=O)CC2)c1
i	-1.9	COc1ccc(C2CC(=O)Oc3ccc(C(C)(C)C)cc32)cc1 (stereo not drawn)
i	0.12	CCOc1nc(-c2ccc(Cl)cc2)nc2ccccc12
i	-0.01	COc1cccc(OCC(O)CN2CCN(C)CC2)c1 (stereo not drawn)
i	0.01	COc1ccc(S(=O)(=O)Nc2c3ccccc3nc(=O)n2-c2ccccc2)cc1
i	-0.28	Cc1ccccc1OCC(=O)NC(C)c1ccccc1 (stereo not drawn)
i	1.1	O=C(COc1coc(CN2CCN(c3ccc(F)cc3)CC2)cc1=O)NC1CCCC1
i	1	O=C(COc1ccccc1Cl)Nc1ccc(N2CCN(C(=O)c3ccccc3)CC2)cc1
i	0.72	Cc1cc(=O)[nH]c(N/N=C/C(C)c2ccccc2)n1 (stereo not drawn)
i	-0.34	COc1ccc(C2SCC(=O)N2Cc2ccccc2)cc1 (stereo not drawn)
i	0.03	Cc1cc(C(=O)Nc2c(C)nn(Cc3ccc(F)cc3)c2C)on1
i	1.4	Cc1cc(C)cc(OCC(O)CN2CCC(CN3C(=O)c4cccc5cccc(c45)C3=O)CC2)c1 (stereo not drawn)

Not all compounds are listed; count on the stated rates, not on these rows.
